BasE inh = BasE siderophore enzyme inhibitors, primary screen, biochemical, Acinetobacter baumannii ATCC 17978, fluorescence polarization; purified BasE, fluorescence polarization binding displacement; inhibition, % (no concentration beside the values); 84,000 compounds, 0.1% hits; AID 485350, 2010;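 active = both replicates above 25% with normal brightness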;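 also: 0% = negative plate control signal and 100% = positive plate control signal; stock transfer was 100 nL into about 30 µL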
KSHV LANA nucl = inhibitors of KSHV LANA-nucleosome binding, primary screen, biochemical, fluorescence polarization, FITC-LANA1-23, chicken nucleosomes. FITC-LANA1-23 / chicken nucleosome fluorescence polarization; stronger effect = lower value. 51,000 compounds, 0.3% hits. z-score (no concentration beside the values);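 active = both repeat wells score below -2 in polarization z-score versus plate sample wells, excluding overly bright wells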;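 also: 100 nL library stock added to about 30 µL; numbers are from one replicate; some results filed as inactive read as strong as hits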
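Test system: purified chicken nucleosomes with FITC-labelled LANA N-terminal peptide (1-23); Input: 240 nM purified chicken nucleosomes (480 nM peptide binding sites), final; Medium: TEN-BT buffer, pH 7.5; Timing: 10–45 min, room temperature; Technique: fluorescence polarization, 480 nm excitation, 535 nm parallel and perpendicular emission; Replication: duplicates.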
An asterisk follows results filed as active; . = no result given; & = joins results of further samples.

Compound	BasE inh	KSHV LANA nucl
O=C(CCC(=O)NC1CCN(Cc2ccccc2)CC1)NCc1ccco1	0.6	-0.754
CCOC(=O)c1nc2ccccc2oc1=O	4.2	0.221
NNC(=O)c1ccc(CN2C(=O)c3cccc4cccc2c34)cc1	-5.0	.
COc1ccc(C(=O)NCCc2nnc3ccc(SCC(=O)Nc4cc(C)on4)nn23)cc1	2.1	-1.16
C/C(=C\C(=O)Nc1ccccc1)N1CCOCC1	0.9	.
CSCC(O)Cn1[nH]c(=O)ccc1=O (configuration not stated)	1.7	.
O=C1C(Cc2ccc(-c3nn[nH]n3)cc2)=C(c2ccccc2)S(=O)(=O)c2ccccc21	2.2	.
O=C(c1ccc(Br)o1)N(c1ccc(Br)cc1)C1C=CS(=O)(=O)C1 (configuration not stated)	-0.9	-0.136
Cc1cccc(NC(=O)CCn2ccc(C)n2)n1	1.1	-0.775
O=C(CSc1nnc(SCC(=O)c2ccc[nH]2)s1)c1ccc[nH]1	-1.7	.
COc1ccc(C23CC4CC(CC(C(=O)O)(C4)C2)C3)c(F)c1	-1.2	.
COc1cc2c3nc4n(c(=O)c3n(CC(=O)N3CCCC3)c2cc1OC)CCS4	0.4	-0.665
N#Cc1cc[n+](CC(=O)c2ccc(NC(=O)c3ccccc3)cc2)cc1	2.7	.
CCCNC(=O)c1ccc(CS(=O)c2ccc(Cl)cc2)o1 (configuration not stated)	0.1	-0.389
CN=C(N=c1ccc(Br)cn1C(=NC)c1cccs1)c1cccs1	-1.1	.
Cn1c(SCC(=O)NC2CC2)nnc1C(F)(F)F	2.2	.
CC(C)[C@H](NC(=O)c1ccco1)C(=O)N(C)Cc1ccc(C(F)(F)F)cc1	-0.2	.
O=C(O)CN1C(=O)C2CC=CCC2C1=O (configuration not stated)	-0.1	-0.831
Cc1c(/C=N/NC(N)=S)c2ccccc2n1C	-0.5	-0.407
O=S(=O)(Cc1ccccc1)c1nc2ccccc2n1Cc1ccc(Br)cc1	1.5	.
CCN(CC)C1CCCCC1NS(=O)(=O)c1ccc(Cl)cc1 (configuration not stated)	1.4	-1.05
CC(=O)Nc1cccc(OCC(=O)N2CCCCC2)c1	3.0	.
O=C(NC1CCCCC1)C1CC(c2c(F)cccc2Cl)=NO1 (configuration not stated)	1.3	-0.427
COC(=O)c1cccc(Cn2nc(C)c(Cl)c2C)c1	0.4	-0.398
Nc1c(S(=O)(=O)c2ccccc2)c2nc3ccccc3nc2n1-c1ccc2c(c1)OCO2	3.1	.
O=c1[nH][nH]c(=S)n2nc(-c3ccccc3)cc12	1.2	-0.096
O=C(O)C(Sc1nncc(-c2ccccc2)n1)c1ccccc1 (configuration not stated)	0.8	-1.41
O=c1[nH]c2ccc(Cl)cc2c(-c2ccccc2)c1NCN1CCOCC1	0.6	.
CC(Cn1cnc2ccccc21)C(=O)N/N=C/c1ccccc1 (configuration not stated)	2.5	0.292
CCOC(=O)c1sc2[nH]c(C(C)(C)C)cc(=O)c2c1C	-4.9	.
CC1CCCC(C)N1C(=O)CSc1nc2ccccc2n1CC(=O)NC1CCCC1 (configuration not stated)	-1.9	0.998
O=c1cnc2ccccc2n1CCOc1ccc(Br)cc1	6.4	.
Cc1ccc(-n2c(O)c(C=NCCc3ccco3)c3ccccc3c2=O)cc1	0.7	.
COc1ccc2cc1Oc1ccc(cc1)C[C@H]1c3c(cc4c(c3Oc3cc5c(cc3OC)CCN(C)[C@@H]5C2)OCO4)CCN1C	-1.0	0.529
CC(=O)Nc1ccc(S(=O)(=O)N=S(C)(C)=O)cc1	-0.1	.
CSc1ncc(C(=O)NCCc2ccccc2)c(C(F)(F)F)n1	-2.2	-0.0575
Cc1ccc(S(=O)(=O)NC(CO)C(=O)O)cc1 (configuration not stated)	-0.3	2.92
CN(C)C=Nc1nc2ccccc2nc1N1CCOCC1	1.5	.
O=P(CO)(c1ccc(Cl)cc1)c1ccc(Cl)cc1	-1.7	-0.0965
CC(C)c1csc2nc3n(c(=O)c12)CCCCC3	-2.5	0.409
Cc1cccc(N2C(=O)CNC2=S)c1	2.1	0.297
COC(=O)Oc1ccc2c(=O)c(-c3ccccc3)coc2c1	-0.1	.
CCC1SC(NC(=O)COc2ccc(OC)cc2)=NC1=O (configuration not stated)	-1.8	0.0145
CCCn1c(N)c(C(=O)CSC2=NC(C(C)C)C(=O)N2c2ccc(C)cc2)c(=O)n(C)c1=O (configuration not stated)	0.8	.
CN(C)C(CNC(=O)c1ccc2ccccc2n1)c1ccccc1 (configuration not stated)	1.4	.
CCc1c(C)nc2c(OC)cccc2c1Cl	-1.9	-0.847
N#CCSc1nc2sc3c(c2c(=O)[nH]1)CCCC3	0.5	-0.233
Cc1cc(C)n(-c2nc3ccccc3nc2Sc2nc3ccccc3s2)n1	1.7	-0.454
COCCNC(=S)N1c2ccccc2CC1C (configuration not stated)	2.0	.
CCOC(=O)c1c(C)noc1-c1csc(Nc2c(C)cc(C)cc2C)n1	4.1	.
CCn1c(SCC(=O)c2ccccc2)nnc1-c1ccco1	-4.3	-1.14
CCCC(C)C(=O)N1CCN(c2ccc(F)cc2)CC1 (configuration not stated)	1.3	0.036
C#CCOC(=O)C1C2C=CC(C2)C1C(=O)O (configuration not stated)	2.9	-0.76
Cc1nn(-c2ccccc2)nc1CNC(=O)CC(C)(C)C	-2.4	.
O=C(CC1C(=O)NC2CCCCC2N1C(=O)Nc1cccc(Cl)c1)Nc1ccc2c(c1)OCO2 (configuration not stated)	-0.3	0.169
O=C(O)/C=C/C(=O)NCc1cccc(Cl)c1	2.7	-0.165
COc1ccc(NC(=O)CN(C)Cc2ccccc2)cc1	0.4	.
CCN1C(=O)C(NC(C)=O)c2ccccc21 (configuration not stated)	-3.1	1.81
O=C(Cc1noc2ccccc12)N1CCCCC1c1nc2ccccc2s1 (configuration not stated)	-2.6	.
O=C1c2ccccc2NC(c2ccccc2)N1Cc1ccco1 (configuration not stated)	-1.6	-0.846

(list continues)
Compound	BasE inh	KSHV LANA nucl
O=C(O)CCc1ccc(Cl)cc1Cl	2.4	.
O=C1CNC(=S)N1C1CCCCC1	0.6	.
O=S(=O)(c1ccccc1)c1ccc(Br)cc1	1.4	.
CC(=O)Oc1cccc(O)c1	-0.1	0.556&0.475
O=C1CC2(CC(=O)Oc3cc(O)ccc32)c2ccc(O)cc2O1	-2.2	-0.31
COc1ccccc1CNC(=O)c1cn(C)c2ccc(S(=O)(=O)N3CCCCC3)cc2c1=O	-2.1	2.36
CC(CC(=O)N1CCCc2ccccc21)S(=O)(=O)c1ccc2c(c1)NC(=O)CO2 (configuration not stated)	0.9	-1.11
O=C(/C=C/c1cc(Cl)c2c(c1)OCCCO2)Oc1ccc(-c2nnco2)cc1	1.7	.
O=C(O)CCC(=O)N1CCN(c2ncccc2C(F)(F)F)CC1	1.1	.
c1ccc(N2CCN(c3ccccn3)CC2)cc1	0.7	.
Cc1ccc(NC(=O)N2CCCC2C(=O)NCC2CCCCC2)cc1 (configuration not stated)	1.7	-0.403
CCOC(=O)c1c(-c2ccc(OC)cc2)oc2ccc(OC(=O)N3CCOCC3)cc12	-4.0	-0.233
CCSc1ncnc2c1sc1nc3c(cc12)COC(C)(C)C3	1.4	.
COc1ccc(NC(=O)CC2CC3CCC2C3)cn1 (configuration not stated)	-0.6	.
CN1C(=O)N(C)C2OC3OC4C(OC3OC21)N(C)C(=O)N4C (configuration not stated)	-1.6	1.38
CCCc1c(C(=O)Nc2cc(F)ccc2F)cnn1C	2.4	.
CC(=O)NC1(c2ccccc2)CCN(Cc2nnnn2C(C)(C)C)CC1	-0.3	0.538
COc1ccc2oc(-c3ccccc3)cc(=O)c2c1	2.2	.
Cc1ccc(NC(=O)CSc2nccn2-c2ccccc2)cc1	2.0	0.591
COc1cccc(-c2nnn(CCc3nn[nH]n3)n2)c1	-1.1	-0.108
O=C(O)CCn1c(=O)c2cc3c(=O)n(CCC(=O)O)c(=O)c3cc2c1=O	2.5	-0.68
O=C(NCCN1CCNC1=O)c1cnn(-c2ccc(Cl)cc2)c1C(F)(F)F	1.5	0.265
O=C1CCCC2=C1C(c1ccccc1)N=C(Nc1nc3ccccc3s1)N2 (configuration not stated)	0.5	0.545
O=C(O)/C=C/c1ccc2c(c1)OCCO2	-0.2	.

An excerpt of the results above, as a working copy:
Compound	BasE inh	KSHV LANA nucl
CN(C)C(CNC(=O)c1ccc2ccccc2n1)c1ccccc1 (configuration not stated)	1.4	.
CCc1c(C)nc2c(OC)cccc2c1Cl	-1.9	-0.847

Going on with the list.
Compound	BasE inh	KSHV LANA nucl
CCOC(=O)C1CCCN(C(=O)C2c3ccccc3Oc3ccccc32)C1 (configuration not stated)	1.1	.
O=C(CNc1cc(Cl)ccc1N1CCOCC1)N1CCCc2ccccc21	0.1	.
CN(C)S(=O)(=O)c1ccc2c(c1)C(=NNC(N)=O)c1cc(S(=O)(=O)N(C)C)ccc1-2	-0.1	-1.2
O=C(c1cccc(S(=O)(=O)N2CCCC2)c1)N1CCN(c2ccccc2)CC1	3.1	.
Cc1ccc(S(=O)(=O)Nc2ccccc2C(=O)NCc2ccco2)cc1	-0.5	0.0975
Cc1cc(SC(C)C(=O)O)nc2ccccc12 (configuration not stated)	-1.2	.
O=C(CSc1nc2[nH]c(=O)[nH]c(=O)c2s1)c1ccccc1	-1.0	0.424
Cn1nc(C(=O)NCc2ccc(F)cc2)c2c1-c1ccccc1OC2	-0.6	-1.21
C=CCn1c(SCC(=O)N2CCOCC2)nnc1-c1cc(Br)ccc1O	2.7	-0.315
CCOC(=O)c1oc2ccccc2c1CSc1nc2cc(S(=O)(=O)N(C)C)ccc2o1	1.3	.
CCn1c(C)nnc1SCC(=O)NC1CCCCCC1	-3.0	-0.236
O=C(Cc1noc2ccccc12)NC1CCCCCC1	1.2	.

Molecules shown so far containing a cyano group:
Compound	BasE inh	KSHV LANA nucl
N#Cc1cc[n+](CC(=O)c2ccc(NC(=O)c3ccccc3)cc2)cc1	2.7	.
N#CCSc1nc2sc3c(c2c(=O)[nH]1)CCCC3	0.5	-0.233

A few values from the results shown.
Reading of Cc1ccc(S(=O)(=O)Nc2ccccc2C(=O)NCc2ccco2)cc1 under BasE inh: -0.5
Reading of CN(C)S(=O)(=O)c1ccc2c(c1)C(=NNC(N)=O)c1cc(S(=O)(=O)N(C)C)ccc1-2 under BasE inh: -0.1
Reading of Cc1cc(SC(C)C(=O)O)nc2ccccc12 (configuration not stated) under BasE inh: -1.2
Reading of Cn1nc(C(=O)NCc2ccc(F)cc2)c2c1-c1ccccc1OC2 under KSHV LANA nucl: -1.21
Reading of O=C(CSc1nc2[nH]c(=O)[nH]c(=O)c2s1)c1ccccc1 under BasE inh: -1.0
Reading of O=C(CNc1cc(Cl)ccc1N1CCOCC1)N1CCCc2ccccc21 under BasE inh: 0.1

Additional structures.
Compound	BasE inh	KSHV LANA nucl
COCCN=c1scc(-c2cccs2)n1/N=C(\C)c1ccco1	-9.8	.
O=C(COC(=O)CN1C(=O)CCOc2ccccc21)Nc1ccc(F)cc1	-3.0	.
COC(=O)C1(C(C)C)NC(c2ccccc2OC)C2C(=O)N(C)C(=O)C21 (configuration not stated)	2.1	0.613
Cc1nn(-c2ccccc2)nc1CNC(=O)COc1ccccc1	-0.8	0.833
c1ccc(CCn2nnnc2CN2CCCc3ccccc32)cc1	0.2	-0.996
O=C(O)CN1C(=O)/C(=c2\sc3nc4ccccc4n3c2=O)c2ccccc21	2.0	-0.661
Cc1cs/c(=N\C(=S)Nc2ccccc2)n1C	1.2	.
N#Cc1c(N2CCOCC2)nn2cc(C(=O)c3ccccc3O)cnc12	2.2	.
S=c1nc[nH]c2ccsc12	11.4	.
COC(=O)CSc1nc2ccccc2[nH]1	1.9	.
c1ccc(-c2cn[nH]c2N2CCOCC2)nc1	.	0.626
CC1SC(=Nc2ccc(C(=O)O)cc2)NC1=O (configuration not stated)	2.2	-0.529
O=C(NC1CCCCC1)C(c1ccco1)N(Cc1ccccc1)C(=O)Cn1nnc2ccccc21 (configuration not stated)	1.8	-0.304
FC(F)(F)c1cccnc1N1CCNC1=S	4.8	.
C/C(N)=C(/C#N)C(=O)CSc1nnc(-c2ccccc2)o1	-0.6	.
Cc1ccccc1N1C(=O)c2cc(S(N)(=O)=O)c(Cl)cc2NC1C (configuration not stated)	-3.6&-0.5	0.0075&-0.402&-0.355
O=C(Nc1ccc(Br)cc1)c1ccc2nsnc2c1	1.9	.
CCOC(=O)C1CN(S(=O)(=O)c2ccccc2)CCN1S(=O)(=O)c1ccccc1 (configuration not stated)	2.2	-0.223
Cc1ccc2[nH]c(=O)c(CN(CC3COCCO3)C(=O)Nc3ccccc3F)cc2c1 (configuration not stated)	1.8	0.303
Nc1ccc(O)c(C(=O)O)c1	-1.8	0.517&0.138&-0.366

Compound activity from PubChem BioAssay.

Only part of the results is shown; count on the stated rates, not on these rows.
